Screening data: PubChem BioAssay, several laboratories
B2AR ag = agonists of human beta-2 adrenergic receptor inducing internalization | P07550 | Am2.2-beta2AR cells, FAP receptor internalization, flow cytometry; reference of the scale not given here | response, % (no concentration beside the values) | actives 0.43% (n = 340,000);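 active = response above a set limit, near 3 SD of response in nonfluorescent compounds, cut at about 42% in these data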;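 also: stock transfer was 100 nL into about 11 µL; a reference agonist was the positive control; negative values mostly stem from fluorescent compounds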
Target sequence (P07550 whole entry, looked up): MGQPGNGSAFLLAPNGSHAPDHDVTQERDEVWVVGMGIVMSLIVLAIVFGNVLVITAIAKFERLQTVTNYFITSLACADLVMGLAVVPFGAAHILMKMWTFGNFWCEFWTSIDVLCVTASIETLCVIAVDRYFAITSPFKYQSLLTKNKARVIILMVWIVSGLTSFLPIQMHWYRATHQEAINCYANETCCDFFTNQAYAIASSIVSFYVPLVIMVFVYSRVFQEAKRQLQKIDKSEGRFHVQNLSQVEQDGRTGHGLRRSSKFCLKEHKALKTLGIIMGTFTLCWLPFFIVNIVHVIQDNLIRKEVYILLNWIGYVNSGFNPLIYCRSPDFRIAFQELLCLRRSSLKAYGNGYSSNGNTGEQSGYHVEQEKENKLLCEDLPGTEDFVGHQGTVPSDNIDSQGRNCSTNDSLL
RanGTP-Impb inh = inhibitors of RanGTP-importin-beta interaction, primary screen, biochemical, FRET, CFP-Ran, YFP-importin-beta, homogeneous; inhibition, % (test concentration not listed); cell-free CFP-Ran/YFP-importin-beta FRET ratio; actives 1.1% (n = 300,000);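 active = most replicates above 15%; inconclusive = exactly half above 15%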;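 also: 0% = DMSO wells and 100% = Ran loaded with GDP instead of GTP; wells of about 40 µL received 100 nL stock; the first replicate is given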
Vif TR-FRET = inhibitors of Vif binding to APOBEC3G peptide, primary screen, biochemical, TR-FRET, GST-Vif 1-94, biotin-A3G peptide, dose response retest (AID 1117319); inhibition, %, or IC50 in µM where a hit was titrated; actives 0.57% (n = 260,000); TR-FRET GST-Vif / biotin-A3G peptide binding; higher % means a stronger effect; test concentration not given here; strong numbers were not always called active;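 active = above the screen mean plus three standard deviations and confirmed in dose response; inconclusive = results disagree or hit not tested in dose response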;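 also: Vif residues 1-94 fused to GST binding biotinylated APOBEC3G peptide 110-148; 0% = full assay without inhibitor and 100% = GST in place of GST-Vif; retest series ran down from 100 µM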
ALR H2O2 inh = inhibitors of human sulfhydryl oxidase ALR; actives 3.8% (n = 290,000); inhibition, % (test concentration not listed); AID 485317; purified ALR, DTT oxidation, H2O2 HRP-luminol luminescence; P55789;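 active = mean and each replicate at 75% or more; inconclusive = only one of the two met; inactive = neither met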;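 also: stock transfer was 7.5 nL into about 7.5 µL; 0% = neutral wells and 100% = wells with inactivated enzyme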
Target sequence (P55789 whole entry, looked up): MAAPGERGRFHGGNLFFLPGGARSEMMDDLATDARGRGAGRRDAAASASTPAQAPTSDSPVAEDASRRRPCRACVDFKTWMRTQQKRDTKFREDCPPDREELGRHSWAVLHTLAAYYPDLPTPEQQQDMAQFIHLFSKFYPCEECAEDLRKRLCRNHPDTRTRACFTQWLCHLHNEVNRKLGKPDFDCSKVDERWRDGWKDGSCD
LANA-H2B inh = blocks KSHV LANA binding to histone H2A/H2B. cell-free LANA-H2A/H2B peptide, fluorescence polarization. inhibition, % (test concentration not listed). actives 0.6% (n = 320,000). AID 2629; in the data active = inhibition mostly above about 10%, no sharp cut-off; inactive = mostly below about 6.7%;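 also: stock transfer was 7.5 nL into about 10 µL; 0% = median of vehicle wells and 100% = median of positive control wells; one replicate is shown; the record names a cut of 25% in any replicate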
HNF4A DNA FP = change in binding of human HNF4 alpha to DNA. HNF4a-FITC DNA binding, fluorescence polarization, 1 h. activity change, % at 10 µM. actives 0.3% (n = 360,000). AID 1224865; in the data active = activity change above about 30%, passing the limit was not always enough;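 also: controls were the assay level and a saturating level of protein; the project sought stronger binding though the title names inhibitors; some compounds called inactive have numbers as strong as hits; positive values seem to mean higher polarization but the record does not say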
Target sequence (P41235 whole entry, looked up): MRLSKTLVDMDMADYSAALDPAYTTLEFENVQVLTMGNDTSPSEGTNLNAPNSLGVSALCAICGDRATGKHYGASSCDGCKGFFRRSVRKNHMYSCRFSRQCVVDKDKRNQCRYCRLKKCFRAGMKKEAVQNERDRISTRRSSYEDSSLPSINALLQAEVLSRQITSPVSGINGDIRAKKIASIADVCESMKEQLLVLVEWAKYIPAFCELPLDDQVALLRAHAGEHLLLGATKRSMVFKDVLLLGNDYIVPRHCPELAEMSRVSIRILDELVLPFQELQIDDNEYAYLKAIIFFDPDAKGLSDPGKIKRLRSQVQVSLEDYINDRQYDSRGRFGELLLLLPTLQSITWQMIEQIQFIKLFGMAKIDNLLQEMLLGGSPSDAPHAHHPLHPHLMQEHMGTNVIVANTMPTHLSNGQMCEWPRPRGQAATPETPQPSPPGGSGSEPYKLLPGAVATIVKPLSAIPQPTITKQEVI
Calb FLC = C. albicans growth modulation with fluconazole | actives 0.57% (n = 300,000) | AID 1979 | growth inhibition, % (test concentration not listed) | C. albicans CaCi-2 (fluconazole-resistant clinical isolate) + fluconazole, Alamar Blue growth, 48 h;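 active = most replicates above 75%; inconclusive = exactly half above 75%; inactive = most below 75%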;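 also: all wells also contain fluconazole at 8 µg/ml as a sub-toxic cotreatment; 0% = median of DMSO wells and 100% = median of geldanamycin control wells; wells of about 8 µL received 7.5 nL stock; the first replicate is given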
* marks the source's active call; other numbers are inactive results; ? = inconclusive; nt = no result given; & = joins results of further samples.

SMILES	LANA-H2B inh	HNF4A DNA FP	RanGTP-Impb inh	B2AR ag	Vif TR-FRET	ALR H2O2 inh	Calb FLC
COc1ccc2ncn(-c3ccccc3)c2c1	-1.8	1.8	-0.5	-9	-5%	-10	-21
Cc1cccc(OCCc2nnc(N)s2)c1C	1.8	-0.4	-2.8	-1	28%	nt	-11
Cc1ccc(NC(=O)CN(C)C(=O)COC(=O)/C=C/c2cccs2)cc1	-4.9	0.9	-0.2	9	-8%	3	-7
CCOC(=O)N1CCN(C2CCCN(C(=O)c3ccccc3C(F)(F)F)C2)CC1 (stereo not given)	nt	2.3	2.6	2	6%	nt	4
CCc1cc(=O)[nH]c(SCC(=O)Nc2ccc3c(c2)OCCO3)n1	nt	0.9	-1.0	-1	-6%	nt	-4
Cc1ccc(S(=O)(=O)N(C)c2ccc(C(=O)NCc3ccccn3)cc2)cc1	2.3	2.2	nt	-1	-5%	-4	7
NC(=O)c1nnsc1-c1ccc(-c2snnc2C(N)=O)cc1	2.7	0.8	0.1	6	-12%	-8	-4
CCOC(=O)N/N=C/c1ccc(Oc2ccccc2)cc1	nt	2.1	4.3	-7	-9%	nt	-21

Retrieved by compound from the list above (two):
SMILES	LANA-H2B inh	HNF4A DNA FP	RanGTP-Impb inh	B2AR ag	Vif TR-FRET	ALR H2O2 inh	Calb FLC
Cc1cccc(OCCc2nnc(N)s2)c1C	1.8	-0.4	-2.8	-1	28%	nt	-11
CCOC(=O)N/N=C/c1ccc(Oc2ccccc2)cc1	nt	2.1	4.3	-7	-9%	nt	-21

(list continues)
SMILES	LANA-H2B inh	HNF4A DNA FP	RanGTP-Impb inh	B2AR ag	Vif TR-FRET	ALR H2O2 inh	Calb FLC
Cc1cccc(N2CCN(C(=O)Cn3sc4nc(C)cc(C)c4c3=O)CC2C)c1 (stereo not given)	0.8	5.1	2.0	29	9%	95*	8
Cc1ccc(Nc2nc(N)nc(CSc3nnc(C)s3)n2)cc1	2.6	1.4	-1.7	1	-4%	-3	-6
O=C(O)c1ccccc1C(=O)Nn1cnnc1	-0.1	1.2	1.7	-3	2%	-7	-6
O=C(c1ccco1)N1CCN(S(=O)(=O)c2ccc([N+](=O)[O-])cc2)CC1	1.3	2.0	2.1	-9	nt	-13	13
CN1CCN(C(=O)C(=O)c2cn(CC(=O)N3CCCC3)c3ccccc23)CC1	-0.8	1.2	-1.2	0	nt	-12	-2
O=C(O)c1ncn(Cc2ccccc2)c1C(=O)O	2.2	-1.5	-0.3	5	20%	0	1
CCCCCn1cnc2sc(CC)cc2c1=O	-0.6	-0.2	-3.6	-8	1%	-3	2
COc1ccccc1-n1cnc2cc(NCc3cccs3)ccc21	0.7	1.0	?	15	83µM*	18	3
O=S(=O)(c1ccc(Cl)s1)N1CCc2ccccc2C1	-2.4	3.6	?	3	-1%	3	6
O=C(NC1CCCN(Cc2ccc(Cl)cc2)C1)c1c(F)ccc(F)c1F (stereo not given)	-2.5	1.9	-0.8	1	nt	2	5
CCN(CC)C(=O)c1nn(Cc2ccccc2)c(=O)c2ccccc12	1.0	4.3	7.5	-16	nt	-12	-15
CCOC(=O)c1cc2c(N)c(C(=O)c3cc(C#N)c(SC)nc3C)sc2nc1C	2.5	0.4	?	13	-22%	-4	56
CCN(CC)C(=O)c1sc(NC(=O)c2ccc(OC)c([N+](=O)[O-])c2)c(C#N)c1C	-4.3	nt	-1.5	nt	nt	-1	-28
Cc1cc(-c2cc(C(=O)NC3CCCC3)on2)nc(NC2CCCC2)n1	0.0	5.5	?	-10	-1%	-3	1
CC(C)CCC(CCNCc1ccccn1)c1ccc(Cl)cc1 (stereo not given)	-6.3	-1.0	5.6	-10	-4%	-3	-11
COc1ccc(SC[C@H](Cc2ccccc2)N2CCN(C)CCC2=O)cc1	-1.6	0.5	4.5	-2	nt	30	0
C/C(=N\NC(=O)OC(C)(C)C)c1ccc[nH]1	-5.9	0.6	-0.8	-4	-9%	14	-4
COc1cccc(NC(=O)c2cc3ccccc3oc2=O)c1	0.7	-2.2	0.0	-3	nt	-13	-2
Cc1ccccc1-c1nnc(SC(C)C(=O)NC2CCCC2)o1 (stereo not given)	5.6	-3.5	nt	-1	nt	nt	nt
Cc1nn(C)cc1S(=O)(=O)Nc1ccc(C(F)(F)F)cc1	-6.0	3.5	8.7	-2	1%	-1	-6
Clc1ccc(-c2n[nH]c3c2CCC3)cc1Cl	-2.0	2.6	-2.5	5	5%	nt	-8
Cc1[nH]c2c(C)cccc2c1CCNC(=O)c1ccc2c(c1[N+](=O)[O-])C(=O)c1ccccc1C2=O	-7.2	3.7	-2.2	24	2%	nt	5
Cc1ccc(N(NC(=O)C(O)(c2ccccc2)c2ccccc2)C(=O)CCl)cc1	14	-2.1	0.5	5	?	13	-15
Cc1ccnc2nc(C(=O)NCc3cccs3)nn12	-17	-2.0	-0.3	1	26%	1	8
CCN(CC(=O)Nc1c(F)cccc1F)C(=O)C1CC(=O)N(CCc2ccc(OC)c(OC)c2)C1 (stereo not given)	4.7	-0.2	nt	0	-5%	-3	nt
Cc1cccc(Cn2nc(C)c(NC(=O)c3ccc(F)cc3)c2C)c1	-2.5	-5.6	-4.5	-1	10%	-15	-4
Cc1cccc(C)c1NC(=O)CNC(=O)CN1C(=O)NC2(CCc3ccccc32)C1=O (stereo not given)	-4.2	-3.0	nt	0	nt	nt	nt
O=C(NC(=S)/C(=C1\CCCCCN1)[N+](=O)[O-])c1ccccc1	1.1	1.6	nt	-14	nt	-3	nt
O=C(COC(=O)Cc1ccc(S(=O)(=O)N2CCOCC2)s1)Nc1ccc(OC(F)F)cc1	-4.5	3.9	nt	4	nt	-1	nt
CC(C)c1ccc(NNC(=O)C2CCC2)cc1	0.0	-0.3	-0.1	-7	-5%	nt	4
Cc1ccc(C)c(S(=O)(=O)NCCCn2ccnc2)c1	-4.2	0.3	-1.5	4	nt	0	1
COc1cccc(-c2nc(CCl)cs2)c1OC	-14	1.5	5.3	6	nt	nt	4

Rewritten as labelled records: entries from further up.
> Cc1cccc(Cn2nc(C)c(NC(=O)c3ccc(F)cc3)c2C)c1
- LANA-H2B inh = -2.5
- HNF4A DNA FP = -5.6
- RanGTP-Impb inh = -4.5
- B2AR ag = -1
- Vif TR-FRET = 10%
- ALR H2O2 inh = -15
- Calb FLC = -4
> O=C(COC(=O)Cc1ccc(S(=O)(=O)N2CCOCC2)s1)Nc1ccc(OC(F)F)cc1
- LANA-H2B inh = -4.5
- HNF4A DNA FP = 3.9
- RanGTP-Impb inh = nt
- B2AR ag = 4
- Vif TR-FRET = nt
- ALR H2O2 inh = -1
- Calb FLC = nt

Following part
SMILES	LANA-H2B inh	HNF4A DNA FP	RanGTP-Impb inh	B2AR ag	Vif TR-FRET	ALR H2O2 inh	Calb FLC
NCCCCCNC(=O)c1[nH]cnc1C(=O)N[C@@H](Cc1ccccc1)C(=O)OCc1ccccc1	1.1	-1.4	nt	-6	nt	2	nt
Cc1sc2ncnc(OCC(=O)NC(C)C)c2c1C	-0.5	-2.0	8.2	1	3%	-9	-23
O=C(NN1c2ccccc2CCc2ccccc21)c1ccccc1Br	-0.3	-2.3	-1.1	5	-1%	-2	-20
COC(=O)c1c(NC(=O)c2ccccc2C(=O)O)sc2c1CCC2	1.7	-1.3	1.8	0	nt	31	0
O=C(NC(C(=O)c1ccccc1)c1ccccc1)c1ccccc1 (stereo not given)	nt	-0.2	nt	3	-4%	nt	nt
Cc1ccc(C(C(=O)NCc2ccc(F)cc2)N(CCCO)C(=O)C2COc3ccccc3O2)o1 (stereo not given)	-0.5	0.8	0.9	-5	3%	2	16
O=C(NCCN1CCN(c2ccccc2)CC1)C1CCN(S(=O)(=O)c2cccs2)CC1	nt	1.1	nt	-4	23%	nt	nt
Nc1nonc1-n1nnc(C(=O)N/N=C/c2ccncc2)c1-c1ccccc1	-8.9	-1.0	5.0	-8	4%	nt	10
CCNc1nc(NCC)n2c(SCC(=O)Nc3cccc(F)c3)nnc2n1	-5.7	-0.1	-3.9	0	17%	-14	-5
COc1ccc(C2C(C(C)=O)=C(C)Nc3ncnn32)cc1[N+](=O)[O-] (stereo not given)	5.5	-4.2	0.4	-1	-2%	-15	-7
CCCCn1c(N)c(N(CCC(C)C)C(=O)c2ccc3c(c2)OCCO3)c(=O)[nH]c1=O	-7.6	2.5	nt	1	-11%	9	-1
Cc1ccc(C(=O)CC(C(=O)O)n2cnc([N+](=O)[O-])n2)cc1 (stereo not given)	-0.6	-0.1	-3.4	3	-9%	2	11
Fc1ccccc1-c1nc(-c2cnccc2C(F)(F)F)no1	0.0	-0.7	-2.9	-7	10%	0	-2
O=C(CCc1ccc(S(=O)(=O)NCc2ccccc2)cc1)NCc1ccco1	-5.6	9.9	2.3	0	8%	-5	45
COc1cc(NC(=O)c2cccs2)c(C(=O)OCC(=O)NC(=O)NC(C)(C)C)cc1OC	-0.4	4.5	-0.2	5	-4%&0%	-3	-7
Cn1c(-c2c(N)n(C3CCCC3)c3nc4ccccc4nc23)nc2ccccc21	0.6	10	?	-26	-5%	2	31
CCCOC1CCCN(C(=O)CCc2nnc(Cc3cccc(C)c3)o2)C1 (stereo not given)	0.7	2.5	3.5	10	-5%	-1	-3
CCn1c(C(=O)O)c(CC(=O)Nc2ccccc2F)c2ccccc21	-0.5	-6.9	1.6	-2	13%	1	1
C[C@]12C(=O)N(c3ccccc3)C(=O)N1[C@@H]1c3ccccc3OC[C@@H]1[C@H]2c1ccccc1	6.0	-7.3	-3.2	-2	nt	-6	-16
CN1CCN(C(=O)c2cccn(Cc3c(Cl)cccc3Cl)c2=O)CC1	-3.7	-0.3	4.6	-10	0%	2	-1
CCOC(=O)c1ccc(NC(=O)c2nc[nH]c2C(=O)N[C@@H](CC(C)C)C(=O)OCc2ccccc2)cc1	-2.0	0.6	0.8	-10	nt	-15	7
Cc1no[n+]([O-])c1COc1ccccc1/C=N/n1nnnc1N	5.7	2.2	-2.4	5	?	-10	-6
O/N=C1\CCCc2ccc3ccccc3c21	-4.3	-1.5	-2.5	4	10%	-8	-2
Cc1[nH][nH]c(=O)c1C(c1c(C)[nH][nH]c1=O)c1cn(C)c2ccccc12	nt	-2.0	nt	2	16%	nt	nt
Cc1sc(NC(=S)NC(=O)C2CCCCC2)c(C(N)=O)c1C	nt	0.4	5.4	19	?	nt	?
C=CCN1C(=O)CSC1=Nc1cccc(O)c1	-3.1	-3.1	-1.5	-4	4%	19	14
CCOc1cccc(N2C(=O)CC(N3CCN(c4ccc(S(=O)(=O)CC)cc4)CC3)C2=O)c1 (stereo not given)	1.1	1.2	-5.3	4	-6%&-7%	-1	4
CC(=O)c1ccc(-c2ccc(C(=O)N3CCCc4ccccc43)o2)cc1	5.2	3.7	4.2	14	0%	8	23
CC(=O)N1c2ccc(S(=O)(=O)NCC3CCC(C(=O)NCc4ccco4)CC3)cc2CC1C (stereo not given)	3.1	0.7	2.0	1	1%	-5	-4
Cc1ccc(/C=N/NC(=O)C2(C)CC2(Br)Br)cc1 (stereo not given)	-7.5	2.5	-0.7	14	4%	10	-7
Cc1nc(C)c(/C(O)=C/c2nc3ccccc3oc2=O)s1	10.0	3.6	-6.9	-2	1%	38	-35
Cn1c(=O)cc(OCCCC(=O)N2CCN(c3ccccn3)CC2)c2ccccc21	-1.9	8.3	-2.5	-4	1%	-6	-1
CN1C[C@@H]2C(c3ccc(C(F)(F)F)cc3)C3(c4ccccc4)CC2(C3)[C@H]1c1ccccc1 (stereo not given in full)	0.4	4.9	2.1	7	nt	-6	-10
